Assay outcomes (PubChem)
MARV entry inh: qHTS for Inhibitors of binding or entry into cells for Marburg Virus; Marburg virus pseudotype entry/binding inhibition, cell-based; control for the full effect not named in the record; many of its hits are not listed in these tables; 18,000 tested, 6.5% active; Potency, µM (doses to about 49.2 µM), for inactives: at the top dose activity change, negative = inhibition, hits mostly inhibitors; AID 720532, 2013; active means well fitted inhibition curve with a large enough effect; inconclusive means small, poorly fitted or top-dose-only effect; inactive means no such curve, though single readings can be large or run the other way; tested in HEK293 cells; note: luciferase read-out
LASV entry inh: qHTS for Inhibitors of binding or entry into cells for Lassa Virus | Lassa virus pseudotyped entry inhibition, cell-based qHTS; control for the full effect not named in the record; many of its hits are not listed in these tables | Potency, µM (doses to about 49.2 µM), for the others: at the highest dose activity change, negative = inhibition, usual class: inhibitors | 18,000 tested, 4.1% active; active = well fitted inhibition curve with a large enough effect; inconclusive = small, poorly fitted or top-dose-only effect; inactive = no such curve, though single readings can be large or run the other way; tested in HEK293 cells; note: luciferase read-out
Active calls of the source: *; & = joins results of further samples; [ ] = dose if it differs, or a comment. % is set by controls: 0 for no effect and ±100 for the full control effect; potency is the fitted concentration of half-maximal effect.

`C[C@@H]1C[C@@H]([C@@H](C)CC2CC(=O)NC(=O)C2)C(=O)[C@@H](C)C1` gave MARV entry inh 5.01µM* and LASV entry inh 4.47µM*.
For Cc1c(Cl)c(=O)oc2cc(OP(=O)(OCCCl)OCCCl)ccc12 the results were MARV entry inh -10.4% and LASV entry inh -14.3%.
Screening CC(O)(COc1ccccc1)c1ccc2c(c1)CN(Cc1cn[nH]c1-c1ccc(F)cc1)CCO2 (stereo not given) returned MARV entry inh inconclusive and LASV entry inh -20.1%.
For COc1cc(/C=C/C(=O)O)cc(OC)c1OC the results were MARV entry inh 2.0% and LASV entry inh 2.8%.
COC(=O)C1=C(C)N(Cc2ccccc2)C(=NCCc2ccccn2)NC1c1cccc(C(F)(F)F)c1 (stereo not given) was read as MARV entry inh inconclusive and LASV entry inh -11.6%[8.59 µM].
Screening COc1cccc([C@@H]2Oc3ccc(Br)cc3C(=O)[C@@H]2OC(=O)Nc2cc(OC)c(OC)c(OC)c2)c1 returned MARV entry inh 5.2%[8.59 µM] and LASV entry inh -10.3%[8.59 µM].
For CC(=O)NCCNc1nc(-c2ccccc2Cl)nc2ccccc12 the results were MARV entry inh 9.2% and LASV entry inh -2.7%.
For COc1cc(-c2cnc3ccccc3c2)cc2c1OCCN(C(=O)CCn1nc(C)cc1C)C2 the results were MARV entry inh 8.3% and LASV entry inh -7.1%.
Screening CCOC(=O)c1c(C(=O)OCC)c2c3ccccc3cc(C)n2c1C(=O)OC returned MARV entry inh 1.5%[8.59 µM] and LASV entry inh 3.9%[8.59 µM].
For O=c1cc(-c2ccccc2Cl)oc2c(NS(=O)(=O)c3cc(Cl)cc(Cl)c3O)ccc(O)c12 the results were MARV entry inh inconclusive and LASV entry inh 10µM*.
Screening COC(=O)C1=C(C)NC(C)=C(C(=O)O[C@@H]2CCCN(Cc3ccccc3)C2)[C@@H]1c1cccc([N+](=O)[O-])c1 returned MARV entry inh 14.1µM* and LASV entry inh inconclusive.
Screening COC(=O)[C@@H]1C[C@@]23C(=NN=C(SC)C2Nc2ccccc23)N1C(C)=O (stereo not given in full) returned MARV entry inh -22.9%[8.59 µM] and LASV entry inh -8.6%[8.59 µM].
Screening C=C(C)CCCN1C=C(C(=O)OCC)C(c2ccccc2)NC1=O (stereo not given) returned MARV entry inh -13.9%[8.59 µM].
`COC(=O)C12CC3=CCC4C(=O)N(c5ccccc5)C(=O)C4C3Cc3ccccc3[C@H]1CNC2=O` (stereo not given in full) gave MARV entry inh 5.1%[8.59 µM] and LASV entry inh 20.8%[8.59 µM].
Screening Cc1cccc(C2=NN(c3ccccc3)[C@@H](C(=O)N3CCOC3=O)[C@@H]2c2ccc([N+](=O)[O-])cc2)c1 returned MARV entry inh -2.2% and LASV entry inh -17.3%.
Screening COc1cc(-c2nc(C)cnc2C)cc2c1OCCN(C(=O)Cn1nc(-c3ccccc3)c3ccccc3c1=O)C2 returned MARV entry inh -13.0% and LASV entry inh -0.8%.
Screening COc1ccc(OC)c(-c2ccnc(-n3ncc(C(=O)N4CCN(CCO)CC4)c3C3CC3)n2)c1 returned MARV entry inh 3.4% and LASV entry inh 2.5%.
Screening COc1cccc(-c2ccc3ncnc(NCc4cccs4)c3c2)c1 returned MARV entry inh 0.6% and LASV entry inh -17.8%.
For COc1ccccc1OCC(O)CO (stereo not given) the results were MARV entry inh 36.3%[activator] and LASV entry inh 2.9%.
Screening COCC(=O)N1CCc2nc(-c3ccccc3)c3c(c2C1)CO[C@@H](C)C3 returned MARV entry inh -27.0%[8.59 µM] and LASV entry inh -6.5%[8.59 µM].
CC(C)=CCCC(C)=CCON=C1C[C@@H](O)[C@@H](O)[C@@H]2[C@H]3C(=O)N(Cc4ccc5c(c4)OCO5)C(=O)[C@@H]3CC[C@H]12 was read as MARV entry inh -16.6%[8.59 µM].
`COC(=O)Nc1nc2ccc(Oc3cccc(NC(=O)Nc4cc(C(F)(F)F)ccc4F)c3)cc2[nH]1` gave MARV entry inh inconclusive and LASV entry inh -50.3%.
Screening CC(=O)CC/C=C(\C)CC/C=C(\C)CC/C=C(\C)CCC=C(C)C returned MARV entry inh inconclusive and LASV entry inh -12.5%.
For CCCCC/C=C\C/C=C\C/C=C\C/C=C\CCCC(=O)NCc1ccoc1 the results were MARV entry inh -5.1% and LASV entry inh -7.1%.
`COC(=O)Nc1nc2ccc(Oc3ccc(NC(=O)Nc4cccc(Br)c4)cc3)cc2[nH]1` gave MARV entry inh inconclusive and LASV entry inh inconclusive.
Screening Cc1cc(CC(=O)O)c(C)n1-c1ccc(Cl)cc1 returned MARV entry inh -1.3% and LASV entry inh -21.5%.
`COc1cc(=O)n2c(c1C(=O)NC(C)c1ccco1)CCN(C(=O)c1cn3ccc(C)cc3n1)CC2` (stereo not given) gave MARV entry inh -11.8% and LASV entry inh -8.8%.
`CCCCCCCC/C=C\CCCCCCCCOC[C@H](COP(=O)([O-])OCC[N+](C)(C)C)OC(C)=O` gave MARV entry inh 12.7%&-10.7% and LASV entry inh -5.4%&-2.1%.
Screening COc1ccc(C2=CC3=C(Br)C(=O)C(C)(O)C(=O)C3=CO2)cc1 (stereo not given) returned MARV entry inh 3.5% and LASV entry inh -1.1%.
Screening O=c1[nH]c(=O)n([C@@H]2O[C@H](CO)[C@@H](O)[C@H]2O)cc1F returned MARV entry inh inconclusive and LASV entry inh 10µM*.
O=c1cc(-c2ccccc2O)oc2cc(O)ccc12 was read as MARV entry inh 19.3% and LASV entry inh 43.1%[activator].
For NC(=O)c1ccc2c(-c3ccnc(NCCCO)n3)c(-c3ccc(F)cc3)nn2c1 the results were MARV entry inh inconclusive and LASV entry inh -16.9%.
Cc1cc(-c2nnn(CCCOC(C)(C)C)c2C)ccc1-c1cn(CCCOC(C)(C)C)nn1 was read as MARV entry inh -13.8% and LASV entry inh -19.4%.
`CS(=O)(=O)c1ccc(-c2cccc3c2OC(CNC(=O)c2ccnc(Cl)c2)C3)cc1` (stereo not given) gave MARV entry inh 8.5% and LASV entry inh 7.1%.
`CCOC(=O)CNC(=O)O[C@@H]1C(=O)c2cc(Br)ccc2O[C@H]1c1cccc(OC)c1` gave MARV entry inh 11.3% and LASV entry inh 1.7%.
CCCCCCCC/C=C\CCCCCCCC(=O)NCCc1ccc(O)c(O)c1 was read as MARV entry inh inconclusive and LASV entry inh inconclusive.
Screening COC(=O)[C@H]1O[C@@H](c2cc(OC)c(C)c(OC)c2OCc2ccccc2)[C@H](C)[C@@H]2O[C@]12C returned MARV entry inh -4.5% and LASV entry inh 4.6%.
For CO[C@@]1(NC(=O)CSC[C@@H](N)C(=O)O)C(=O)N2C(C(=O)O)=C(CSc3nnnn3C)CS[C@@H]21 the results were MARV entry inh 33.5%[activator] and LASV entry inh 8.2%.
Screening CC[C@@H](C)[C@H](NS(=O)(=O)c1cccc2ccccc12)C(=O)N[C@H](C=O)Cc1c[nH]c2ccccc12 returned MARV entry inh 3.55µM* and LASV entry inh inconclusive.
For CC(=O)Nc1c2sscc-2n(C)c1=O the results were MARV entry inh 11.2µM* and LASV entry inh 10µM*.

Reprinted from the results shown, 2 compounds:
For CO[C@@]1(NC(=O)CSC[C@@H](N)C(=O)O)C(=O)N2C(C(=O)O)=C(CSc3nnnn3C)CS[C@@H]21 the results were MARV entry inh 33.5%[activator] and LASV entry inh 8.2%.
Screening CC[C@@H](C)[C@H](NS(=O)(=O)c1cccc2ccccc12)C(=O)N[C@H](C=O)Cc1c[nH]c2ccccc12 returned MARV entry inh 3.55µM* and LASV entry inh inconclusive.

Next records follow:
For CC(C)C1C(=O)N(Cc2cn(CC3CCCCC3)nn2)CCS(=O)(=O)N1Cc1ccc(-c2ccc(Cl)cc2)cc1 (stereo not given) the results were MARV entry inh inconclusive and LASV entry inh inconclusive.
For COc1ccc(COc2cc(-c3cccc(OC)c3)nc3ccc(NC(=O)c4ccc(N(C)C)cc4)cc23)cc1 the results were MARV entry inh inconclusive and LASV entry inh inconclusive.
CCCCC/C=C\C/C=C\C/C=C\C/C=C\CCCC(=O)NCCO was read as MARV entry inh 8.6%&2.7%&15.3%&9.4% and LASV entry inh 2.7%&-2.4%&-3.0%&1.0%.
Nc1ccc(N=Nc2ccccc2)c(N)n1 was read as MARV entry inh 68.7%[activator] and LASV entry inh 51.7%[activator].
`C/C1=C\[C@@H](O)C(C(C)C)C(OC(=O)c2ccc(O)cc2)C/C(C)=C/CC1` (stereo not given in full) gave MARV entry inh inconclusive and LASV entry inh inconclusive.
O=C(CN1Cc2ccccc2OC(c2ccccc2)C1)NCc1cccnc1 (stereo not given) was read as MARV entry inh -6.4% and LASV entry inh -4.1%.
Screening CSc1ncccc1C(=O)NCC1Cc2cc(-c3cnccn3)ccc2O1 (stereo not given) returned MARV entry inh -6.9% and LASV entry inh -4.4%.
`CCCCOCCOCCOCc1cc2c(cc1CCC)OCO2` gave MARV entry inh -12.9%[107 µM] and LASV entry inh -20.8%[107 µM].
For COc1ccc(-c2cccc([C@H]3[C@@H]4C=CC[C@@H](C)[C@@H]4C(=O)N3Cc3ccccc3)c2)cc1 the results were MARV entry inh -29.4% and LASV entry inh inconclusive.
Screening COCOCCn1cc(CN2CCS(=O)(=O)N(Cc3ccc(-c4cccc(N(C)C)c4)cc3)C(C(C)C)C2=O)nn1 (stereo not given) returned MARV entry inh inconclusive and LASV entry inh -5.6%.
For COc1ccc([C@@H](C)C(=O)c2ccc(O)cc2O)cc1 the results were MARV entry inh -14.7% and LASV entry inh -4.5%.
Screening C=CC[C@@H]1C=C[C@H](ON=C[C@@H](C)[C@H](OCc2ccccc2)C(C)C)[C@H](CO)O1 returned MARV entry inh -10.4%[8.59 µM].
`O=C(/C=C/c1cccc([N+](=O)[O-])c1)c1ccccc1` gave MARV entry inh 0.6% and LASV entry inh -4.7%.
Screening CCOC(CN1CCN(CC(C)C(=O)c2ccccc2)CC1)c1ccccc1 (stereo not given) returned MARV entry inh inconclusive and LASV entry inh inconclusive.
For CSc1ccc(-c2ccc3c(c2)CC(CNC(=O)Cn2nc(C)nc2C)O3)cc1 (stereo not given) the results were MARV entry inh 1.7% and LASV entry inh 4.1%.
For C#CCCCON=C1C[C@@H](O)[C@H](O)[C@H]2[C@@H]3C(=O)N(C4CCCCC4)C(=O)[C@@H]3CC[C@H]12 the results were MARV entry inh inconclusive and LASV entry inh 13.7%[8.59 µM].
Screening CNc1ncncc1-c1ccccc1OC returned MARV entry inh 1.3% and LASV entry inh 11.3%.
For COC(=O)c1ccc(C(=O)NCC2Cc3cc(F)cc(-c4cncnc4)c3O2)cc1 (stereo not given) the results were MARV entry inh -5.2% and LASV entry inh -10.0%.
`O=P(O)(O)C(O)(Cc1cccnc1)P(=O)(O)O` gave MARV entry inh 16.5% and LASV entry inh -0.2%.
For CCCc1nc2c(C)cc(-c3nc4ccccc4n3C)cc2n1Cc1ccc(-c2ccccc2C(=O)O)cc1 the results were MARV entry inh -14.0% and LASV entry inh inconclusive.
CCN1C[C@]2(C)CC[C@H](O)[C@@]34[C@@H]5CC6[C@@H](OC)C[C@@](O)([C@@H]5[C@@H]6O)[C@H](C[C@@H]23)[C@H]14 was read as MARV entry inh -18.2%[17.8 µM] and LASV entry inh -6.6%[17.8 µM].
Screening CC1=CC[C@@H](COc2ccccc2)O[C@@]2(C1)C(=O)Nc1ccccc12 returned MARV entry inh 20.5%[8.59 µM] and LASV entry inh 32.4%[activator][8.59 µM].
For COC(=O)C/C=C/[C@@H](C)[C@H](NC(=O)OCC(Cl)(Cl)Cl)c1ccc2ccccc2c1 the results were MARV entry inh -3.1% and LASV entry inh -14.4%.
For COc1ccc(CCN(C)Cc2cc(-c3cncnc3)ccc2O)cc1OC the results were MARV entry inh -13.5% and LASV entry inh -9.9%.
For COc1cc(CNCc2cc3cc(C)ccc3nc2-c2ccc(F)cc2)cc(OC)c1OC the results were MARV entry inh -7.8% and LASV entry inh -2.5%.
`CCOC(=O)C1(C(=O)OCC)CC2=C(C=CC3=C(C=C2)CC(C(=O)OCC)(C(=O)OCC)C3)C1` gave MARV entry inh 6.2%[8.59 µM] and LASV entry inh -21.0%[8.59 µM].
For COc1c(CC=C(C)C)c2c(c3oc(=O)c(-c4ccc(O)cc4)c(O)c13)C=CC(C)(C)O2 the results were MARV entry inh 11.2% and LASV entry inh -4.0%.
OC[C@H]1NC[C@H](O)[C@@H](O)[C@H]1O was read as MARV entry inh 11.5% and LASV entry inh 7.3%.
COc1ccccc1CNC(=O)c1cccc(-c2ccccc2OC)n1 was read as MARV entry inh 28.3% and LASV entry inh 5.3%.
Screening COC[C@H]1O[C@H](c2ccccc2)C=C[C@H]1OCc1cccc(Br)c1 returned MARV entry inh -14.9%[8.59 µM] and LASV entry inh 22.4%[8.59 µM].
For COc1cccc2oc(SC)cc(=O)c12 the results were MARV entry inh 4.4%[107 µM] and LASV entry inh -16.7%[107 µM].
For CCn1c2ccccc2c2cc(CN3CCOc4ccc(C(O)c5cccnc5)cc4C3)ccc21 (stereo not given) the results were MARV entry inh inconclusive and LASV entry inh inconclusive.

Sorted by formula weight (descending): some entries from above.
For COC(=O)C/C=C/[C@@H](C)[C@H](NC(=O)OCC(Cl)(Cl)Cl)c1ccc2ccccc2c1 the results were MARV entry inh -3.1% and LASV entry inh -14.4%.
For COc1ccc(CCN(C)Cc2cc(-c3cncnc3)ccc2O)cc1OC the results were MARV entry inh -13.5% and LASV entry inh -9.9%.
COc1ccccc1CNC(=O)c1cccc(-c2ccccc2OC)n1 was read as MARV entry inh 28.3% and LASV entry inh 5.3%.
Screening CC1=CC[C@@H](COc2ccccc2)O[C@@]2(C1)C(=O)Nc1ccccc12 returned MARV entry inh 20.5%[8.59 µM] and LASV entry inh 32.4%[activator][8.59 µM].

A portion of the library; rates above refer to the full screens.
